# Screens (PubChem)
# FGF22 binding: FGF22 (human) thermal shift binding | Q9HCT0 | recombinant FGF22 thermal shift, SYPRO orange fluorescence; percent of sucrose octasulfate shift, DMSO zero | calls only at 9.99 µM | 340,000 tested, 1.5% active | AID 651658;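 active means melting point raised past a set limit in the mean and every replicate; three in four hits are not shown here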
# Target sequence (Q9HCT0 whole entry, looked up): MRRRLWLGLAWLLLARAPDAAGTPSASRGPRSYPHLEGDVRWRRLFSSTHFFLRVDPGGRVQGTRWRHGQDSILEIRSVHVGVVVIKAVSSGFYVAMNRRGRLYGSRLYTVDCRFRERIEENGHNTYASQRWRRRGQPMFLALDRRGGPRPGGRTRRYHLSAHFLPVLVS
# rRNA inh HTS: inhibitors of bacterial rRNA selective over humanized ribosomes; E. coli WT GFP vs humanized-ribosome RFP mutants, fluorescence, 24 h; stronger effect = lower value; DMSO median 0, no signal -100; GFP signal change (wild-type ribosome), % (concentration not given with the values); 350,000 tested, 1.6% active; AID 720706;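 active means significant combined selectivity score with lowered wild-type GFP, culture density cut under 30%, mutant RFP and density less affected; inactive means any of these conditions unmet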; further: one replicate is shown; some compounds called inactive have numbers as strong as hits
# UCH37 inh: human UCH37 deubiquitinating enzyme inhibition | purified proteasome/UCH37, Ub-AMC cleavage fluorescence | inhibition, % (no concentration beside the values) | 330,000 tested, 0.33% active | Q9Y5K5;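 active means mean of two replicates above 20%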;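 further: 0% = compound-free wells with enzyme and 100% = wells lacking proteasome; stock transfer was 100 nL into about 20 µL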
# Target sequence (Q9Y5K5 whole entry, looked up): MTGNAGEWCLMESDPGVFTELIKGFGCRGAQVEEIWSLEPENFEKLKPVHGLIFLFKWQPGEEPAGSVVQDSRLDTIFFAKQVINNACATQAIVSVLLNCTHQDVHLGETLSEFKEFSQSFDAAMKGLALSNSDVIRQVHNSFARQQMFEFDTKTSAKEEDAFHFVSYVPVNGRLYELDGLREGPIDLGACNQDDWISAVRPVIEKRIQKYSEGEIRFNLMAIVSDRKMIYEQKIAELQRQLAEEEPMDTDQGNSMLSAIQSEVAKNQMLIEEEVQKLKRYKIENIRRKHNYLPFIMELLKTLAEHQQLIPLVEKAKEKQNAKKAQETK
#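 assay system = human UCH37 enzyme supplied as purified proteasome complex | amount = proteasome at 0.15 nM in the dispensed enzyme solution | schedule = 30 min compound-proteasome preincubation then 25 min substrate reaction, room temperature | measured by = fluorescence, ex 355 nm, em 460 nm | benchmarks = no-proteasome wells (full inhibition) and compound-free wells (no inhibition)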
# T cruzi inh: T. cruzi replication inhibition; T. cruzi beta-gal in NIH3T3, luminescence, 90 h; inhibition, % (test concentration not listed); 300,000 tested, 1.4% active;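 active means mean inhibition across valid replicates above about 55%, limit read from the data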;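 further: signal also drops with host cell toxicity which is not excluded here; 0% = plate median of DMSO wells and 100% = zero luminescence signal; higher percent means less beta-gal luminescence so fewer parasites; stock transfer was 50 nL into about 50 µL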
# Beta cell apopt: beta cell apoptosis inhibition; INS-1E cytokine-induced death, ATP luminescence, 48 h; percent of positive-control rescue, neutral wells zero; 300,000 tested, 0.8% active; AID 435005; protection from apoptosis, % (test concentration not listed);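 active means all replicates at 75% or more, or half of them and the mean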;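 further: 0% = cytokine-treated negative control wells and 100% = positive control rescue; higher means more ATP so stronger rescue from cytokine killing; wells of about 40 µL received 100 nL stock; the first replicate is given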
# AF4-AF9 inh: inhibitors of human MLL-AF4/AF9 interaction; inhibition, % at 10 µM; AID 651704; AlphaScreen, biotin-AF4 peptide binding to FLAG-AF9; 350,000 tested, 0.47% active; P42568;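 active means every replicate reaching a set inhibition limit, whatever the replicate mean, cut at about 25% in these data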;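 further: 0% = plate neutral control median and 100% = total signal loss; the record names both 10 and 1 µM as test concentration; the first replicate is given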
# Target sequence (P42568 whole entry, looked up): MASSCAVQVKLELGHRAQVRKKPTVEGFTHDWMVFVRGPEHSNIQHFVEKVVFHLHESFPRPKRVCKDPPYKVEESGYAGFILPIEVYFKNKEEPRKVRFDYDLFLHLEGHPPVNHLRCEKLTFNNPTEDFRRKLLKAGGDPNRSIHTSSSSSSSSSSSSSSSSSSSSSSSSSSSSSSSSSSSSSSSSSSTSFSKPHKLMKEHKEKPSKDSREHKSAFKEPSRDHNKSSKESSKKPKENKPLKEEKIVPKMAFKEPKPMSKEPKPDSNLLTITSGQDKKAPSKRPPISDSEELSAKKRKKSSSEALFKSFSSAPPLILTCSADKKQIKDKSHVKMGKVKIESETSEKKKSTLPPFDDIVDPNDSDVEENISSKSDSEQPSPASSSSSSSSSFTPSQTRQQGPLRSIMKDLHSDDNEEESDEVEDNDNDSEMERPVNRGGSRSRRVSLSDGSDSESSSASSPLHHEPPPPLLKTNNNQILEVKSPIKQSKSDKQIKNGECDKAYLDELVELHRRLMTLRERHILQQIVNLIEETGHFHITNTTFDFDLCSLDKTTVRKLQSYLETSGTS
# A1 inh: inhibitors of the anti-apoptotic protein A1, read as caspase activation | MEF A1-2A-BIM cells, Caspase-Glo 3/7 luminescence, 3 h; percent of clofoctol response, vehicle zero | caspase activation, % (test concentration not listed) | 330,000 tested, 0.066% active | AID 2462;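 active means over half of replicate activation scores above 10%, or exactly half above 10 with the replicate mean above 10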;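 further: wells of about 30 µL received 50 nL stock; many hits fall short of the cut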
# Ecoli growth: E. coli growth inhibition; Escherichia coli growth, OD600, 23 h; stronger effect = lower value; OD600 absorbance (concentration not given with the values); 330,000 tested, 0.21% active;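 active means OD600 absorbance below the run mean of sample wells minus 3.6 SD, in any replicate, cut at about 0.56 in these data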;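 further: stock transfer was 300 nL into about 60 µL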
# rRNA inh HTS OD600: recorded beside rRNA inh HTS, whose call it bears; OD600 change, %; measured here: OD600 growth;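 optical density of the mix in the first replicate; 0 = DMSO median and -100 = no signal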
# rRNA inh HTS RFP: second read-out of rRNA inh HTS, no call of its own (marks repeat the call); RFP signal change, %; measured here: RFP humanized mutant strains;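 first replicate; 0 = DMSO median and -100 = no signal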
# Active calls of the source: *; i = inactive; . = not tested or not shown; & = joins results of further samples. Only part of the results is shown, so the mix of outcomes need not match the whole.
SMILES	rRNA inh HTS RFP	UCH37 inh	Beta cell apopt	FGF22 binding	Ecoli growth	T cruzi inh	rRNA inh HTS OD600	A1 inh	rRNA inh HTS	AF4-AF9 inh
CSc1ccc(/C=C/C(=O)c2ccc(NC(=O)Cc3ccccc3)cc2)cc1	.	3.5	8	.	0.71	44	.	0.3	.	.
C=CCOC(=O)c1ccc(-n2cnc(C)n2)nc1	.	0.7	5	.	0.69	-8	.	0.3	.	.
CC(=O)n1cc([C@@H]2C=C(C(=O)O)O[C@H](OCc3ccc(CO)cc3)C2)c2ccccc21	-1.8	1.1	-1	i	.	-32	8	-0.4	1	2.7&-0.5
O=C(NCc1ccc(Cl)cc1Cl)C(=O)N1CCCCC1	.	2.7	-2	.	0.69	5	.	-0.1	.	.
O=C(COC(=O)COc1ccccc1)NC12CC3CC(CC(C3)C1)C2	-0.9	5.6	-4	i	0.68	.	5	-0.1	1	1.3
CN(CCOc1ccc(Cl)cc1)C(=O)Cc1ccc(S(=O)(=O)N2CCOCC2)s1	2.8	4.2	-6	i	0.7	.	-11	0.1	-10	-29
CCN(CC)CCN(C(=O)Cn1nnc(-c2ccc(C)o2)n1)C(C(=O)NC1CCCC1)c1ccc(F)cc1 (centres undefined)	4.5	7.0	.	i	0.65	-4	12	.	11	0.5
COc1cc2c(cc1OC)CN(S(=O)(=O)c1ccc(Cl)nc1)CC2	-0.2	6.8	.	i	0.7	.	-1	.	-1	-2.6
CCOC(=O)C1CCCN(C(=O)C2CCCN(S(=O)(=O)c3ccc4c(c3)oc(=O)n4C)C2)C1 (centres undefined)	-0.3	4.0	3	i	0.72	4	3	0.2	-1	-2.4
COc1cccc(OC)c1C(=O)NCCN1CCN(C(=O)c2c(OC)cccc2OC)CC1	.	1.1	1	.	0.74	-10	.	0.9	.	.
N#CCCN(C(=O)COC(=O)c1cccc(S(=O)(=O)N2CCCCCC2)c1)c1ccc(F)cc1	0.5	1.6	.	i	0.65	.	-8	.	-2	-6.1
CCn1cnc2c(oc3ccccc32)c1=O	-0.6	1.6	-2	i	0.68	-6	13	0.5	6	1.0
CCN(C(=O)COC(=O)CSc1ccc(F)cc1)c1c(N)n(Cc2ccccc2)c(=O)[nH]c1=O	-1.4	5.4	0	i	0.67	.	18	0.2	13	-6.1
O=C(CSc1nnc(CNc2ccccc2)o1)N1CCCc2ccccc21	.	1.5	-4	.	0.62	-14	.	-0.7	.	.
COc1cc(C(=O)NNC(=O)COc2ccccc2Cl)ccc1OCC(=O)N1CCOCC1	1.8	-0.8	5	i	0.64	.	-1	1.8	-1	-3.7
COc1cc2c(c(OC)c1O)C(=O)CO2	-11	5.3	0	i	0.66	20	9	-0.6	6	-3.2
CN(c1ccccc1)S(=O)(=O)c1ccc(C(=O)Nc2ccncc2)cc1	-6.3	-0.3	.	i	0.65	70*	-23	0.9	-28	2.4
CC(=O)Nc1ccc(NC(=O)[C@@H]2CCCN2S(=O)(=O)c2ccc3c(c2)OCCO3)cc1	-0.4	-1.1	4	i	0.7	-5	11	-0.1	-3	-15
COCCn1nnnc1C(c1cccc(C(F)(F)F)c1)N1CCOCC1 (centres undefined)	.	-0.7	-2	.	0.74	-7	.	0.8	.	.
CCOC(=O)c1ccccc1NC(=S)N1CCC(N2CCCCC2)CC1	.	1.5	-3	.	0.7	7	.	0.0	.	.
CCCCC(CC)C(=O)NCc1ccc(F)cc1 (centres undefined)	.	3.9	-3	i	0.68	14	.	0.4	.	-1.4
CC(=O)N(/C=C1\SC(=S)N(c2ccccc2)C1=O)c1ccccc1	63	3.1	-2	i	0.64	-1	-1	-2.2	16	11
N#Cc1c(N)n(-c2ccc(N)cc2)c2nc3ccccc3nc12	.	5.9	-6	i	0.72	-22	.	0.1	.	-1.4
COc1cccc(NC(=S)NC(=O)c2cncc(Br)c2)c1	0.9*	4.8	-5	i	0.65	.	-1.0*	-1.0	-24*	-1.5
CCOCCn1c(=O)c2c(nc3n2CC(C)CN3Cc2ccccc2)n(C)c1=O (centres undefined)	-2.7	3.8	5	i	0.68	5	-14	-1.1	-11	3.0
O=C(Nc1ccc2oc(-c3ccccc3)nc2c1)c1ccncc1	.	-0.7	.	.	0.78	-8	.	-0.7	.	.
O=C(NNC(=O)C12CC3CC(CC(C3)C1)C2)c1ccccc1F	0.7	-0.8	9	i	0.7	-1	-11	0.8	-1	-0.8
COc1ccc(CCNC(=O)C(=O)NCC2OCCN2S(=O)(=O)c2ccc(F)cc2)cc1 (centres undefined)	-4.0	2.9	-7	i	0.72	-12	-2	0.8	7	-4.4
CN(C)C1=NC[C@H](Cc2ccccc2)N1CC1CCC(C(C)(C)C)CC1 (some centres undefined)	.	-1.9	5	.	.	-3	.	0.2	.	.
COc1cc(C)c(NC(=O)C(=S)N2CCCC2)cc1C	-1.1	4.1	-1	i	0.7	-12	1	0.3	5	0.7
CCC(=O)c1ccc(OC)c(OC)c1O	-1.7	2.9	1	i	0.66	-21	15	0.4	4	-4.4
O=C(Nc1cc(S(=O)(=O)N2CCOCC2)ccc1N1CCCC1)c1cnccn1	.	6.5	.	.	0.67	4	.	0.2	.	.
CCCCNC(=O)CCn1c(=O)c2ccccc2n(Cc2ccc(F)cc2)c1=O	2.0	2.9	1	i	0.69	10	16	1.0	15	6.7
Cc1ccc(NC(=O)CN2C(=S)NC(C)(C)CC2C)cc1Cl (centres undefined)	0.5	4.0	-7	i	0.73	.	-5	0.3	2	2.3
Cc1ccc(N2CC(C(=O)Nc3nnc(SCc4ccccn4)s3)CC2=O)cc1 (centres undefined)	1.6	0.9	-1	i	0.72	9	-6	0.5	-7	-2.8
CC1Cc2ccccc2N1C(=O)CN1C(=O)NC(C)(CCc2ccccc2)C1=O (centres undefined)	4.1*	1.1	6	i	0.7	8	-10*	-1.3	-18*	4.9
CCN(CC)CCN1C(=O)c2oc3ccc(F)cc3c(=O)c2C1c1ccncc1 (centres undefined)	-3.1	-1.5	-5	i	0.76	-4	13	-0.4	10	0.5
CCC(C)[C@H](NC(=O)Nc1ccc(Oc2ccccc2)cc1)C(=O)O (some centres undefined)	.	-2.0	-2	.	0.75	0	.	-1.7	.	.
Clc1ccc(-c2noc(COc3ccccc3)n2)cc1	.	2.3	5	.	0.69	3	.	-0.2	.	.
Cc1ccc(NS(=O)(=O)c2ccc3c(c2)NC(=O)CO3)c(C)c1	3.1	1.5	-5	i	0.69	32	-10	-0.4	-6	-12

# Part of the list above, showing only UCH37 inh.
canonical_smiles,UCH37 inh
Cc1ccc(N2CC(C(=O)Nc3nnc(SCc4ccccn4)s3)CC2=O)cc1 (centres undefined),0.9
CC1Cc2ccccc2N1C(=O)CN1C(=O)NC(C)(CCc2ccccc2)C1=O (centres undefined),1.1
CCN(CC)CCN1C(=O)c2oc3ccc(F)cc3c(=O)c2C1c1ccncc1 (centres undefined),-1.5
CCC(C)[C@H](NC(=O)Nc1ccc(Oc2ccccc2)cc1)C(=O)O (some centres undefined),-2.0

# Further compounds follow.
SMILES	rRNA inh HTS RFP	UCH37 inh	Beta cell apopt	FGF22 binding	Ecoli growth	T cruzi inh	rRNA inh HTS OD600	A1 inh	rRNA inh HTS	AF4-AF9 inh
COc1ccc(CCNC(=O)C2C3CCC(C3)C2C(=O)O)cc1OC (centres undefined)	0.3	1.9	0	i	0.65	-8	8	1.7	11	-2.5
N/C(=N\OC(=O)c1ccccc1)C(C(=O)NOC(=O)c1ccccc1)C1CCCCC1 (centres undefined)	0.5	9.6	.	i	0.69	.	2	.	1	-1.5
Cc1ccc(NS(=O)(=O)c2cccc(C(=O)N3CCN(c4ncccn4)CC3)c2)cc1	-1.4	.	-3	i	.	.	14	0.1	18	-2.4
CS(=O)(=O)c1ccc(Cl)c(NC(=O)C2CCCCN2S(=O)(=O)c2ccccc2)c1 (centres undefined)	.	0.7	1	i	0.68	.	.	1.1	.	-5.8
Cc1ccccc1N1CCN(S(=O)(=O)c2cccs2)CC1	-5.7	-0.4	1	i	0.68	7	-33	0.1	-31	-0.7
COc1ccc(-c2n[nH]c(=S)n2Cc2ccco2)cc1	.	4.0	4	.	0.77	1	.	0.0	.	.
Nc1nc(Nc2ccccc2)nc(N2CCCC2)c1[N+](=O)[O-]	-4.6	5.4	8	i	0.68	-2	-23	-0.6	-27	14
CCC(=O)Nc1cccc(NC(=S)NC(=O)Cc2ccccc2)c1	.	2.4	-13	.	0.73	8	.	0.1	.	.
CCOc1cc2c(cc1/C=C/C(=O)O)OC(C)C2 (centres undefined)	-8.1	i	-3	i	0.7	-1	3	-0.5	1	3.3
Cc1ccc(S(=O)(=O)N2CCC(=O)N(CCOCc3cccc(C)c3)CC2)cc1	-3.6	4.9	-8	i	0.68	1	-22	-0.3	-22	-14

# Three entries already listed, arranged by length of the SMILES, falling.
SMILES	rRNA inh HTS RFP	UCH37 inh	Beta cell apopt	FGF22 binding	Ecoli growth	T cruzi inh	rRNA inh HTS OD600	A1 inh	rRNA inh HTS	AF4-AF9 inh
COc1ccc(CCNC(=O)C2C3CCC(C3)C2C(=O)O)cc1OC (centres undefined)	0.3	1.9	0	i	0.65	-8	8	1.7	11	-2.5
Cc1ccccc1N1CCN(S(=O)(=O)c2cccs2)CC1	-5.7	-0.4	1	i	0.68	7	-33	0.1	-31	-0.7
CCOc1cc2c(cc1/C=C/C(=O)O)OC(C)C2 (centres undefined)	-8.1	i	-3	i	0.7	-1	3	-0.5	1	3.3

# Next part
SMILES	rRNA inh HTS RFP	UCH37 inh	Beta cell apopt	FGF22 binding	Ecoli growth	T cruzi inh	rRNA inh HTS OD600	A1 inh	rRNA inh HTS	AF4-AF9 inh
Cc1cccc(N2CCN(C(=O)c3ccc4[nH]c(C)c(C)c4c3)CC2)c1C	1.8	-1.1	-4	i	0.69	.	-16	-1.7	2	3.7
Cc1cc([N+](=O)[O-])nn1Cc1ccc(C(=O)N/N=C/c2ccc(N(C)C)cc2)cc1	0.7	.	-31	i	.	14	10	0.4	10	11
COc1ccc(CNC(=O)c2c(C)cc(=O)oc2C)cc1	1.0	9.7	-5	i	0.69	-6	-9	-0.8	2	-3.7
CCOc1ccccc1OC(C)C(=O)Nc1ccc(S(=O)(=O)N2CCCC2)cc1 (centres undefined)	1.1	3.9	-3	i	0.72	32	-11	-0.3	-11	-2.9
CNC(=O)NC(=O)C(C)OC(=O)c1c(C)noc1C (centres undefined)	.	0.1	-7	.	0.67	.	.	0.1	.	.
CC(C)(C)NC(=S)Nc1ccc(Nc2ccccc2)cc1	.	5.9	2	.	0.67	29	.	.	.	.
COc1ccc(C(=O)N/C(=C/c2ccc(Cl)cc2)C(=O)NCc2ccncc2)cc1	-1.8	5.4	-2	i	0.64	12	7	1.8	5	1.3
COc1ccccc1C1CC(=O)Oc2cc(C)c(Br)c(C)c21 (centres undefined)	-3.5	2.0	.	i	0.69	.	4	.	1	-1.0
Cc1ccc(S(=O)(=O)NCCCNS(C)(=O)=O)cc1	-5.7	-1.7	-2	i	0.72	-10	11	0.4	15	-78
CN(C)c1cc(N)c2ccccc2n1 (tested in a mixture with another compound)	.	2.8	.	.	0.65	4	.	1.0	.	.
